High-throughput results from PubChem BioAssay.
GIV-Gai inh: inhibitors of GIV GBA-motif binding to rat Galpha-i3. P08753. 210,000 tested, 0.42% active. Galpha-i3/FITC-GIV peptide fluorescence polarization, 90 min; active compounds read low; scaled: aluminum fluoride 0%, vehicle 100%. percent of control (FP), % (concentration not given with the values);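 active means replicate mean at 85% of control or lower, very high polarization wells dropped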;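 further: wells of about 15 µL received 100 nL stock; the first replicate is given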
Target sequence (P08753 whole entry, looked up): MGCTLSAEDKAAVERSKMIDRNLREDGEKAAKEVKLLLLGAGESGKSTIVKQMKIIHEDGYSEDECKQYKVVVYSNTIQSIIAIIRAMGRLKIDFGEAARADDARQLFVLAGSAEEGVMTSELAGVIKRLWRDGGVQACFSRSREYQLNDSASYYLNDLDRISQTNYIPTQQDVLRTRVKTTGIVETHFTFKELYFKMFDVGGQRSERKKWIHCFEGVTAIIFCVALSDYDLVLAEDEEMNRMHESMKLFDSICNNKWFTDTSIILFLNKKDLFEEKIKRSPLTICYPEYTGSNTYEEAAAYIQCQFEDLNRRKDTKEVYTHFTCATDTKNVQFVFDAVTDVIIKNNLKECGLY
Sa growth 42C: inhibitors of Staphylococcus aureus growth at 42 °C; S. aureus RN4220 growth, OD600, 20 h; active compounds read low; relative growth, % (test concentration not listed); 170,000 tested, 0.53% active; AID 720641;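 active means growth at 42 °C up to 50% and 20 or more points under that at 30 °C, or under 10% at both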;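 further: 300 nL library stock went into each well; scaled to the means of positive and negative controls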
HCMV NEC inh: disrupts HCMV UL50-UL53 complex binding | 190,000 tested, 0.15% active | inhibition, % (test concentration not listed) | HTRF UL50-UL53 interaction, normalized percent inhibition;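 active means both replicates at 50% or more, plus weaker picks with an unusually low signal ratio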;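 further: stock transfer was 100 nL into about 20 µL; 0% = negative control wells and 100% = wells with untagged competitor protein; inactives centre near -12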
Sa growth 42C second temp: further read-out of Sa growth 42C, marked with its call; relative growth, %; measured here: growth at 30 °C;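 optical density after 20 h as mean of two plates; 100% = untreated growth and lower means inhibition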
* hit, by the source's call; · = no result given; & = joins results of further samples.

SMILES	GIV-Gai inh	Sa growth 42C	Sa growth 42C second temp	HCMV NEC inh
CCCNC(=O)Cn1ncn2c(cc3sc(CC)cc32)c1=O	106	112	97	·
Cc1ccc(Sc2ccc(N3CCCC(C(=O)Nc4ccc(F)cc4F)C3)nn2)cc1 (stereo not given)	105	101	90	-11
CCOC(=O)c1[nH]c2ccccc2c1NC(=O)c1cccc(OC)c1OC	98	97	88	-9
Cc1ccc2onc(CC(=O)N3CCN(c4cccc(C)c4C)CC3)c2c1	97	95	83	-9
COc1ccc(COCC(O)CS(=O)(=O)c2ccc(Cl)cc2)cc1 (stereo not given)	99	105	94	1
O=C(c1ccccc1Cl)N1CCC(c2nc3c(nnn3Cc3ccco3)c(=O)[nH]2)CC1	105	36	36	9
O=C(Cc1ccc(NC(=O)N2CCSc3ncccc32)cc1)Nc1cccc(Br)c1	99	·	·	-24
COc1ccc(/C=N/N=C/c2c(O)[nH]c(=O)[nH]c2=O)cc1	·	80	91	-12
O=C(CSc1nnc(-c2cccs2)n1C1CC1)NC(=O)C1COc2ccccc2O1 (stereo not given)	·	101	92	-18
COC(=O)c1sc(N)c(C(=O)OC)c1COC(=O)c1ccc2c(c1)OCCO2	·	79	96	-23
Cc1cc(C(=O)N2CCOCC2)c2cccc(C)c2n1	109	·	·	-18
Cn1c(=O)c2cc(C(=O)Nc3cccc(C#N)c3)sc2c2ccccc21	99	96	88	-4
Clc1ccc(-n2cccc2)cc1	102	111	89	-6
Fc1ccccc1-c1ccc(CNCc2cccs2)o1	105	·	·	-17
CSc1ncc(F)c(N(C)C)n1	·	98	91	4

Ordered by value in Sa growth 42C (falling): some entries from above
SMILES,Sa growth 42C
Cc1ccc(Sc2ccc(N3CCCC(C(=O)Nc4ccc(F)cc4F)C3)nn2)cc1 (stereo not given),101
Cc1ccc2onc(CC(=O)N3CCN(c4cccc(C)c4C)CC3)c2c1,95
O=C(c1ccccc1Cl)N1CCC(c2nc3c(nnn3Cc3ccco3)c(=O)[nH]2)CC1,36

(listing goes on)
SMILES	GIV-Gai inh	Sa growth 42C	Sa growth 42C second temp	HCMV NEC inh
O=C1CSc2ccccc2N1Cc1ccc(Cl)cc1	102	85	92	·
O=C(Nc1ccc2c(c1)OCO2)c1ccc(Nc2cc(-c3ccc(F)cc3)ncn2)cc1	105	·	·	-24
CC(C)CCNc1c2c(nc3nncn13)CCC2	104	86	80	·
O=C(CCCO)NCc1ccc2c(c1)OCO2	98	95	83	-19
CS(=O)(=O)NCc1ccccc1	98	92	88	-9
CC(C)(C)c1ccc(C(CNC(=O)c2cc(=O)c3ccc(Br)cc3o2)N2CCCC2)cc1 (stereo not given)	107	·	·	-40
COc1cc(C=C2C(=O)NC(=S)NC2=O)cc(Br)c1OCC(C)C	103	·	·	-7
Cc1cccc(NC(=O)Cn2cccc2)c1	105	93	92	-1
Cc1ccc(CNS(=O)(=O)c2cn(C)cn2)cc1	106	91	88	-1
N#CC1(NC(=O)CSc2nc3scc(-c4cccs4)c3c(=O)[nH]2)CCCCC1	·	102	91	-2
Cc1nc(C)c(C(=O)Nc2cccc(F)c2)s1	109	·	·	0
CCOC(=O)C1CCN(S(=O)(=O)c2ccc3c(c2)C(C)(C)C(=O)N3C)CC1	105	109	84	1
CC(C)OCCCn1c(SCC(=O)Nc2ccc(F)cc2)nc2c(sc3ccccc32)c1=O	99	104	103	·
CC(=O)N[C@H]1[C@H](OCCN2C(=O)c3ccccc3C2=O)O[C@H](CO)[C@@H](O)[C@@H]1O	109	97	96	-4
O=C(NCCc1ccc(Cl)cc1)c1ccc2c(c1)N(Cc1ccc(F)cc1)C(=O)CS2	99	97	94	·
COc1ccc(N(Cc2cc(CN3CCOCC3)cs2)S(=O)(=O)c2c(C)n[nH]c2C)cc1	111	·	·	-12
CC(C)N(C(=O)NC(=O)Nc1ccc(S(=O)(=O)N2CCCC2)cc1)S(C)(=O)=O	·	87	87	-6
Cc1oc2ccccc2c1CCOC(=O)c1ccc(Cl)cc1	104	104	99	8
COc1ccc(Br)cc1CNC(=O)c1ccc(-n2c(C)cc3c2CCC(C)C3)cc1 (stereo not given)	107	111	117	·
COC(=O)CNC(=O)Cc1cccc2ccccc12	·	125	93	-21
CNS(=O)(=O)c1cccc(C(=O)OC2CCCCC2=O)c1 (stereo not given)	·	104	89	-22
Cn1c(NCCN)nc2c1c(=O)n(Cc1ccccc1)c(=O)n2C	101	94	91	-13
CCOc1ccc(OCC)c(NC(=O)C2Cc3ccccc3CN2S(C)(=O)=O)c1 (stereo not given)	103	99	90	4
CCOc1cc2[nH]c(=O)n(CCCC(=O)N3CCN(c4ccc(OC)cc4)CC3)c(=O)c2cc1OCC	105	92	83	·
CCc1ccc(CNC(=O)CC2CCN(C(=O)c3[nH]c(C)c(C(=O)OC)c3C)CC2)cc1	103	·	·	-17
O=C(NCC(c1cccnc1)N1CCN(c2ccccc2F)CC1)c1ccc(F)cc1 (stereo not given)	105	99	91	-22
COc1ccc(-c2nc(CSCC(=O)NCCc3ccc(C)cc3)c(C)o2)cc1OC	106	94	86	-20
CCC(Sc1nc2ncccc2c(=O)n1Cc1ccccc1)C(=O)Nc1ccc(F)cc1 (stereo not given)	103	113	87	·
CCOC(=O)c1ccc(NC(=O)NC(c2ccccc2)c2nnc(-c3ccc(Cl)cc3)o2)cc1 (stereo not given)	100	·	·	-4
COC(=O)c1ccc(-n2nnc(-c3nsc(NC(=O)c4ccc(Cl)cc4)n3)c2C)cc1	101	90	87	-11
CCOc1cccc(NC(=O)C2CC(=O)N(C)C(=Nc3ccc(OC)cc3)S2)c1 (stereo not given)	102	88	88	·
CCc1ccc(-c2nc(CSCC(=O)N3CCOCC3)c(C)o2)cc1	105	107	89	-9
CS(=O)(=O)c1ccc(-c2cc(Br)sc2-c2ccc(F)cc2)cc1	·	78	76	6&-6&-6&-31
O=C(CCn1[nH]c(=O)ccc1=O)Nc1ccc2c(c1)CCC2	·	79	92	-15
CCN(CC)c1nc(Nc2ccc(OC)cc2)nc(Nc2ccc(OC)cc2)n1	98	98	76	-29
O=C1CC(N2CCCc3ccccc32)C(=O)N1c1ccccc1 (stereo not given)	·	104	88	-2
Cc1nn(CC(=O)N2CCN(c3ccccc3)CC2)c(=O)c2cc3sccc3n12	102	109	87	-2
CCCN(CCC)CCCNC(=O)c1cc2c(-c3ccc(Cl)cc3)nn(C)c2s1	102	95	83	-2
COc1ccc(/C=C2/SC(=S)N(CCC(=O)Nc3c(C)n(C)n(-c4ccccc4)c3=O)C2=O)cc1	57*	·	·	-15
O=C(CSc1nnc(-c2ccccc2)o1)NC1CCCC1	99	84	79	-14
CCOc1ccc(-c2cc(C(=O)N3CCN(c4cccc(C)c4)C(C)C3)c3ccccc3n2)cc1 (stereo not given)	109	127	109	·
Cc1ccc(OCCCCn2nnc3sc4c(c3c2=O)CCC(C)C4)cc1 (stereo not given)	103	104	90	-15
O=S(=O)(NCC1CCCO1)c1ccc(-n2cccn2)cc1 (stereo not given)	106	76	91	·
Cc1ccc2[nH]c(C(=O)NCc3ccccc3)cc2c1	107	·	·	-16
COc1ccc(CCNC(=O)c2cnc3scc(C)n3c2=O)cc1OC	97	82	89	5
O=C(c1cc(=O)c2ccccc2o1)N1CCCc2ccccc21	103	94	85	-38
O=c1oc2ccccc2cc1-c1csc(-c2ccccc2)n1	·	99	93	5
Cc1cc(Br)ccc1SCC(=O)OCC(=O)c1ccco1	·	110	95	4
CCc1ccc(S(=O)(=O)N2CCN(c3nc4cc(Br)ccc4n4cccc34)CC2)cc1	100	·	·	-15
CC(=O)N1CCN(c2ccc3ccccc3n2)CC1	·	85	81	-7
Cc1ccc(Cn2cccc2CNS(=O)(=O)Cc2ccccc2)cc1	109	·	·	-30
COc1ccc(CCNC(=O)c2ccccc2)cc1	·	103	86	-8
Cc1ccc(N2CC(NC(=O)c3ccc(S(=O)(=O)N(C)C)cc3)CC2=O)cc1C (stereo not given)	102	115	81	·
CC1(C)Cc2ccccc2CN1C(=O)c1ccccc1	107	77	88	·
C=CCn1c(SCC(=O)c2ccc(N(C)S(C)(=O)=O)cc2)nnc1C1CCCCC1	·	77	94	-24
O=C(Nc1ccccc1)Nc1ccc(C(=O)N2CCCCC2)cc1	·	79	86	-10
CCCN1C(=O)c2[nH]nc(-c3ccccc3)c2C1c1cccc(O)c1 (stereo not given)	104	96	73	-27
O=C(CN1C(=O)/C(=C\c2ccccc2)Oc2ccccc21)NCCc1ccccc1	101	108	88	·
CCc1ccc2nc(NC(=O)Cn3ccc(=O)[nH]c3=O)sc2c1	·	73	93	-24
O=C1C(=O)N(CCc2c[nH]c3ccccc23)C(c2ccccn2)/C1=C(/O)c1ccccc1 (stereo not given)	·	110	84	-31

Grouped by structure: the entries above with a thiophene ring, fused or not.
SMILES	GIV-Gai inh	Sa growth 42C	Sa growth 42C second temp	HCMV NEC inh
CCCNC(=O)Cn1ncn2c(cc3sc(CC)cc32)c1=O	106	112	97	·
O=C(CSc1nnc(-c2cccs2)n1C1CC1)NC(=O)C1COc2ccccc2O1 (stereo not given)	·	101	92	-18
COC(=O)c1sc(N)c(C(=O)OC)c1COC(=O)c1ccc2c(c1)OCCO2	·	79	96	-23
Cn1c(=O)c2cc(C(=O)Nc3cccc(C#N)c3)sc2c2ccccc21	99	96	88	-4
Fc1ccccc1-c1ccc(CNCc2cccs2)o1	105	·	·	-17
N#CC1(NC(=O)CSc2nc3scc(-c4cccs4)c3c(=O)[nH]2)CCCCC1	·	102	91	-2
CC(C)OCCCn1c(SCC(=O)Nc2ccc(F)cc2)nc2c(sc3ccccc32)c1=O	99	104	103	·
COc1ccc(N(Cc2cc(CN3CCOCC3)cs2)S(=O)(=O)c2c(C)n[nH]c2C)cc1	111	·	·	-12
CS(=O)(=O)c1ccc(-c2cc(Br)sc2-c2ccc(F)cc2)cc1	·	78	76	6&-6&-6&-31
Cc1nn(CC(=O)N2CCN(c3ccccc3)CC2)c(=O)c2cc3sccc3n12	102	109	87	-2
CCCN(CCC)CCCNC(=O)c1cc2c(-c3ccc(Cl)cc3)nn(C)c2s1	102	95	83	-2
Cc1ccc(OCCCCn2nnc3sc4c(c3c2=O)CCC(C)C4)cc1 (stereo not given)	103	104	90	-15

Further results follow.
SMILES	GIV-Gai inh	Sa growth 42C	Sa growth 42C second temp	HCMV NEC inh
FC(F)(F)c1cc(-c2cccnc2)nc2cc(-c3ccc(Cl)cc3)nn12	102	·	·	-10
COCCCn1c(=O)c2ccccc2n(Cc2ccccc2)c1=O	99	112	86	-6
CCc1nc(-c2cc(S(=O)(=O)NCC(=O)NC3CC3)c(C)s2)no1	105	·	·	-6
O=C(CSc1nnc(-c2ccccc2)n1-c1ccccc1)NC1=NCCS1	·	74	90	-13
Cc1ccc(C)c(NC(=O)N2CCN(S(=O)(=O)c3ccc4c(c3)NC(=O)C(C)O4)CC2)c1 (stereo not given)	110	·	·	-17
COC(=O)C(CC(C)C)NC(=O)c1ccccc1C (stereo not given)	·	90	98	-20
Cn1nc2c(c1N)CCC2	·	100	91	13
Nc1c(S(=O)(=O)Cc2ccc(Cl)cc2)sc2nc3c(cc12)CCCC3	101	110	84	·
CC1(C)C2CC=C(/C=N/NC(=O)COc3ccc(C#N)cc3)C1C2 (stereo not given)	·	82	94	-6
O=C(CCc1nc2ccccc2c(=O)[nH]1)Nc1cccc(O)c1	·	98	83	-20
CC1CCN(S(=O)(=O)c2ccc3c(c2)N(CC(=O)N2CCN(c4ccc(Cl)cc4)CC2)C(=O)CO3)CC1	99	106	56	-22
Clc1cccc(OCCN2CCN(c3ccccc3)CC2)c1	·	89	82	-12
CC(NC1CCN(C)CC1)c1ccccc1 (stereo not given)	102	92	94	-17
CCSc1nc2n(n1)C(c1cccs1)C1=C(CCCC1=O)N2 (stereo not given)	103	120	91	·
CC(Sc1ccccn1)C(=O)Nc1ccccc1 (stereo not given)	108	102	81	3
CCc1cc2c(ncn3cnnc23)s1	·	105	74	-42
Cc1ccc(CN(Cc2cc(=O)n3cc(C)ccc3n2)CC(C)C)cc1	116	·	·	-37
Cc1ccccc1C(=O)Nc1nnc(S(=O)(=O)N2CCCCCC2)s1	100	109	88	-3
Cc1ccc(C2NC(c3ccc(C)cc3)C(C)C(=NO)C2C)cc1 (stereo not given)	99	101	87	-17
CCCCNC(=O)c1nc(-c2ccccc2)n(-c2ccc(Cl)cc2)n1	103	·	·	-18
CCC(C)Nc1ncnc2sccc12 (stereo not given)	99	82	85	-20
COC(=O)c1ccccc1NC(=O)c1nn(-c2ccc(C)cc2)c(=O)n(C)c1=O	103	·	·	-52
CC1CN(Cc2c(O)ccc3c(=O)c(-c4ccccc4)coc23)CC(C)O1 (stereo not given)	100	84	85	·
O=C(O)c1cc(N2CCN(c3ccc(Cl)cc3)CC2)ccc1NC(=O)C1CCC1	107	·	·	-44
Cc1ccc(NC(=O)c2cnc3ccccn3c2=O)cc1	111&102	92	82	-45
FC(F)(F)c1ccnn1-c1nc(-c2cc3ccccc3o2)cs1	·	99	92	-4
C=CCN1C(C(=O)c2ccccc2)=C(NC(=O)c2ccc(OC)cc2)c2ccccc2S1(=O)=O	107	108	93	-2
Cn1c(=O)c2cc(C(=O)N3CCCC3)sc2c2ccccc21	103	125	89	·
O=C(NC(=O)c1sc2ccccc2c1Cl)c1ccccc1O	100	87	16	-159
Cc1cccc(CCNC(=O)C2CCN(c3nc4ccccc4nc3C(F)(F)F)CC2)c1	105	74	89	·
CCOC(=O)c1cccc(-n2nnc3c(sc4nc(C)c(C)cc43)c2=O)c1	104	·	·	-27
CC1=C(C(=O)N2CCCCC2)C2(CCC(C)CC2)OC1=O (stereo not given)	109	90	92	0
CCCNC(=O)Cn1c2ccccc2c2nc3n(c(=O)c21)CCS3	106	93	83	-28
